Assay outcomes: PubChem, Southern Research Institute
V. cholerae motility = Vibrio cholerae motility inhibitors, OD read-out (AID 588778); Vibrio cholerae motility, OD read-out; higher % means a stronger effect; test concentration not given here; primary cut-off and reference of the scale not given here; strong numbers were not always called active; inhibition, %, or IC50 in µg/mL where a hit was titrated; 10,000 tested, under 10 active; in the data active = confirmed in a dose series
V. cholerae motility viability = second read-out of V. cholerae motility, no call of its own (marks repeat the call); inhibition, %; measured here: bacterial viability at 10 ug/mL;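 higher means fewer living bacteria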
* = called active by the depositor.

SMILES | V. cholerae motility | V. cholerae motility viability
COc1ccc(OC)c(/C=C2/SC(N3CCN(C(c4ccccc4)c4ccccc4)CC3)=NC2=O)c1 | -13% | -8
COc1ccc(CCNC(=S)Nc2ccccc2SC)cc1OC | 3% | -6
COc1cc(OC)c(C2=NOC(C(=O)Nc3sc4c(c3C#N)CCC4)C2)cc1Cl (centres undefined) | -9% | -3
CCOC(=O)N1CCN(C(=O)Cc2cccc3ccccc23)CC1 | 11% | 2
C=CCn1c(C(CCCC)CC(O)COCCC)n[nH]c1=S (centres undefined) | -5% | -5
CCOC(=O)c1ccc2nc(C)cc(Nc3cccc(C(F)(F)F)c3)c2c1 | 18% | 27
N#C/C(=C\c1ccc(N2CCC(Cc3ccccc3)CC2)c([N+](=O)[O-])c1)c1nc2ccccc2[nH]1 | -1% | -7
Cc1ccc(S(=O)(=O)N2Cc3ccccc3CC2C(=O)Nc2sc3c(c2C#N)CCCC3)cc1 (centres undefined) | -13% | -4
COc1ccc(-c2csc(NC(=S)NC(=O)c3cc4ccccc4o3)n2)cc1 | -4% | -6
CCCCN(CCCC)Cc1ccc(N)cc1 | 6% | -1
NC(N)=Nc1nc(-c2ccccc2)c2cc(F)ccc2n1 | 10% | -1
CCOC(=O)c1c(SCC(=O)Nc2nccs2)nc(C)c(C)c1C | -10% | -1
COc1cc2c(cc1OC)C1=C(C#N)CCC(=NC(=O)c3ccccc3F)N1CC2 | 9% | 5
CN(C)S(=O)(=O)Nc1cccc(Br)c1 | 12% | 8
CC(=O)NC(n1c(SCc2ccccc2)nc2ccccc21)C(Cl)(Cl)Cl (centres undefined) | 5% | -1
O=C(c1cc2c(s1)CCCC2)n1cccn1 | -10% | 6
Cc1ncc(CSc2nnnn2-c2ccccc2)c(N)n1 | 12% | -1
Cc1csc(NC(=O)c2cccc(Cn3nc(C)c(Br)c3C)c2)n1 | -5% | -2
Cc1onc(-c2ccccc2)c1C(=O)NC(=S)NNC(=O)c1cccs1 | 84% | 33
Cc1c(Cl)cccc1NC(=S)N1CCN(S(C)(=O)=O)CC1 | -24% | -13
Cc1cc(C(=O)N2CCN(C/C=C/c3ccccc3)CC2)ccc1[N+](=O)[O-] | -3% | -2
CCC(C)(C)C1CCc2c(sc(NC(=O)c3cnccn3)c2C#N)C1 (centres undefined) | -23% | -9
Cc1ccc(C(=O)CSc2nnc(-c3cccnc3)n2N)cc1 | 0% | -4
N#C/C(=C\c1ccc(F)cc1)c1nc2cc(C(F)(F)F)ccc2s1 | -14% | -1
C=CCN(CC=C)c1ncnc2ccc(Br)cc12 | 6% | 3

Copied from the list.
COc1ccc(-c2csc(NC(=S)NC(=O)c3cc4ccccc4o3)n2)cc1 in V. cholerae motility viability = -6
C=CCn1c(C(CCCC)CC(O)COCCC)n[nH]c1=S (centres undefined) in V. cholerae motility viability = -5
COc1ccc(OC)c(/C=C2/SC(N3CCN(C(c4ccccc4)c4ccccc4)CC3)=NC2=O)c1 in V. cholerae motility = -13%

Two successive entries already listed, quoted:
SMILES | V. cholerae motility | V. cholerae motility viability
COc1ccc(OC)c(/C=C2/SC(N3CCN(C(c4ccccc4)c4ccccc4)CC3)=NC2=O)c1 | -13% | -8
COc1ccc(CCNC(=S)Nc2ccccc2SC)cc1OC | 3% | -6

The results go on.
SMILES | V. cholerae motility | V. cholerae motility viability
O=C(c1cc2cc(Cl)ccc2oc1=O)c1cc2cc(Cl)ccc2oc1=O | 2% | -1
C=CCN(CC=C)C(=O)c1ccc(OC)c(I)c1 | 14% | -1
COc1cc2c(cc1NC(=O)C(F)(F)F)oc1ccccc12 | -14% | -9
N/C(=N\OC(=O)N1c2ccccc2Sc2ccccc21)c1ccc([N+](=O)[O-])cc1 | -8% | -2
O=S(=O)(NCCOc1cccc2cccnc12)c1ccc(F)cc1 | -7% | 4
N#Cc1c(-c2ccccc2)cc(=O)n2c1[nH]c1ccccc12 | 18% | 4
N#Cc1c(NC(=O)Cn2cc([N+](=O)[O-])cn2)sc2c1CCC2 | -11% | -7
Cc1c(NC(=O)c2csc3ccccc23)cccc1[N+](=O)[O-] | 9% | 36
O=C1CCCN1C(=O)CN1CCOCC1 | -15% | -11
O=C(c1ccc(N2CCNCC2)cc1)c1cccs1 | 13% | -1
NC(=O)C1(N2CCCCC2)CCN(C(=O)CSc2nc3ccccc3s2)CC1 | -6% | 1
CC(=O)Oc1ccc2nc(CN3C(=O)c4ccc([N+](=O)[O-])cc4C3=O)oc(=O)c2c1 | 1% | 1
CCOC(=O)Cc1nc2cc(Cl)ccc2o1 | 1% | 4
CCCc1cc(C(=O)NNC(=S)NCc2ccco2)cs1 | 12% | 4
CCc1cccc(C)c1N(C(=O)Cn1c(COC)nc2ccccc21)C(C)COC (centres undefined) | 7% | 1
COCCC(=O)Nc1c(-c2ccccc2)c2cc(Br)ccc2[nH]c1=O | -31% | -8
N#Cc1ccc(-c2cccs2)nc1SCCCOc1ccccc1 | -20% | -4
CC1(C)CC(=O)C2=C(C1)OC(N)=C(C#N)C2(C)C | -8% | -14
C=CCNC(=S)Nc1ccc(OC(F)F)c(Cl)c1 | 34% | 3
Cc1cnn(-c2cc(C(F)(F)F)nc(-c3ccccc3)n2)c1 | 12% | 9
C=CCOc1ccc2ccccc2c1CNCCCN1CCOCC1 | -5% | 0
N#Cc1c(C(F)(F)F)cc(-c2cccs2)nc1SCC(=O)Nc1sc2c(c1C#N)CCC2 | 14% | 14
c1ccc(-c2noc(CN3CCN(Cc4ccc5c(c4)OCO5)CC3)n2)cc1 | -3% | -3
Cc1cc(C(F)(F)F)nc(SCC(=O)NCc2cccc(C(F)(F)F)c2)n1 | -21% | -5
CCCn1cnc2cc(NCc3ccccn3)ccc21 | 2% | -1
(cont.)
SMILES | V. cholerae motility | V. cholerae motility viability
COC(=O)c1ccc(NS(=O)(=O)c2cccc3c2C(=O)c2ccccc2C3=O)cc1 | 21% | 7
Cn1c(NC(=O)c2ccc(Br)o2)cc(=O)n(C)c1=O | 3% | -2
CS(=O)(=O)NCCSCc1ccco1 | -2% | -2
O=C(O)c1cc(NC(=S)NC(=O)C(c2ccccc2)c2ccccc2)ccc1Cl | -13% | -5
O=C(CSc1nnnn1-c1ccccc1)Nc1cccc2nsnc12 | 26% | 4
C=CCN(C(=O)c1ccc(Cl)cc1Cl)c1nnc(-c2ccncc2)s1 | 8% | -1
O=[N+]([O-])c1ccc2nonc2c1N1CCCCC1 | 10% | 0
COc1ccc(CNC(=O)COc2ccccc2C(=O)NCCc2ccc(OC)c(OC)c2)cc1 | -10% | -5
COc1ccc(S(=O)(=O)Nc2ccc(S(=O)(=O)N3CCCCCC3)cc2)cc1Br | -5% | 4
COc1ccccc1N(C)c1cc(F)c(F)c(F)c1F | -8% | -2
Cc1ccc(N2CCN(S(=O)(=O)N3CCOCC3)CC2)c(C)c1 | 0% | -2
O=C(COc1ccc(Cl)cc1Cl)NCCC1=CCCCC1 | 29% | 13
CC(NS(=O)(=O)c1ccccc1)C(=O)Nc1ccc(I)cc1 (centres undefined) | 7% | -4
Cn1cccc1CC(=O)NNC(=S)NC1CCCCC1 | 12% | 1
Cn1cnnc1SCC(=O)c1ccc2c(c1)CCCC2 | 18% | 7
COc1cc2c(cc1NC(=O)CSc1nc3ccc([N+](=O)[O-])cc3[nH]1)oc1ccccc12 | 17% | 10
COc1ccc(Cl)cc1C(=O)n1cccn1 | -1% | -4
CNC(=O)c1cc(S(=O)(=O)N(C)C)ccc1Cl | -10% | -6
O=C1CC(CSc2nnnn2-c2ccccc2)=NN1c1nc2ccccc2s1 | -9% | -4
C=C(C)Cc1c(C)nc(-c2ccccc2)[nH]c1=O | -12% | -6
O=C(NN1CCOCC1)C12CC3CC(CC(C3)C1)C2 | 9% | 1
Cn1c2ccccc2n2c(SCc3ccc(Br)cc3)nnc12 | 6% | 2
Cc1c(Cl)c(C(F)(F)F)nn1CCCNC(=O)C1CCCC1 | -19% | -7
COc1ccc(C(=S)N2CCCC2)c(OC)c1 | 4% | -4
Cc1ccc(C(=O)N2CCn3cccc3C2c2ccccc2)cc1 (centres undefined) | -7% | 4

Sorted by formula weight (rising): 4 of the compounds above
SMILES | V. cholerae motility | V. cholerae motility viability
COc1ccc(Cl)cc1C(=O)n1cccn1 | -1% | -4
C=C(C)Cc1c(C)nc(-c2ccccc2)[nH]c1=O | -12% | -6
COc1ccccc1N(C)c1cc(F)c(F)c(F)c1F | -8% | -2
Cc1c(Cl)c(C(F)(F)F)nn1CCCNC(=O)C1CCCC1 | -19% | -7

Next part
SMILES | V. cholerae motility | V. cholerae motility viability
S=C(NCc1ccc(Cl)cc1)NC1CCN(Cc2ccccc2)CC1 | 10% | -3
CC12CCC(C(=O)NCC(F)(F)F)(C(=O)C1=O)C2(C)C (centres undefined) | -5% | -4
Nc1cc(C(=O)O)ccc1NCC1CCCO1 (centres undefined) | -7% | -5
CC(C)(C)c1ccc(OC(=O)COc2ccc3ccccc3c2)cc1 | -9% | -2
CC(=O)Nc1ccc(-c2nnc(SCC(=O)n3c4c(c5c3CCCC5)CCCC4)n2C)cc1 | 7% | -2
CCOc1ccccc1-c1n[nH]c(=S)o1 | 11% | 0
COc1ccc(S(=O)(=O)N2CCCC(C(=O)N3CCN(C)CC3)C2)cc1C (centres undefined) | 10% | 0
Cc1cnn(C(=O)c2ccccc2Br)c1 | 0% | 1
CC(C)(CO)NC(=O)CC12CC3CC(C1)CC(c1ccccc1)(C3)C2 | 7% | 2
CC(c1ccccc1)N1CCC(CN)C1 (centres undefined) | 10% | 1
CC(=O)c1cc(-c2ccccc2)[nH]c1NC(=O)c1ccccc1 | 18% | 29
N/C(=N\OC(=O)CSc1ccccc1)c1ccncc1 | -1% | 0
CC(C(=O)Oc1ccc(C2C3=C(CC(C)(C)CC3=O)NC3=C2C(=O)c2ccccc23)cc1)N1C(=O)c2ccccc2C1=O (centres undefined) | -12% | -4
Cc1oc(-c2ccccc2Cl)cc1-c1nn2c(-c3ccccc3)nnc2s1 | -18% | -5
Cc1cc(C(F)(F)F)nn1CCCNC(=O)c1cccs1 | 6% | 2
O=C(Nc1ccccc1I)c1ccc(N2CCCC2)c([N+](=O)[O-])c1 | 10% | 5
CC1(C)CC(NC(=O)CCCOc2ccc(Cl)cc2Cl)CC(C)(C)N1 | 6% | 2
S=C(NNC(=S)Nc1ccc(Br)cc1Cl)Nc1ccc(Cl)cc1 | 14% | 2
CCN(CC)C(=O)C(=O)Nc1cccc(SC)c1 | 8% | 3
Cc1occc1-c1n[nH]c(=S)n1-c1ccccc1 | 7% | -2
CC(=O)N1CCN(c2ccc(NCc3cccc4ccccc34)cc2)CC1 | 2% | 0
Cc1cc(C(=O)NC(C)C23CC4CC(CC(C4)C2)C3)c(C)o1 (centres undefined) | 1% | -3
Cc1ccc(C(=O)N/C(=N/c2nc3c(c(=O)[nH]2)CCCC3)Nc2cccc(C)c2)cc1 | -6% | -2
CCOC(=O)CSc1nc(N)nc(C)c1Cl | 8% | 26
COc1cccc(C(C)NC(=O)Nc2cccc(C(F)(F)F)c2)c1 (centres undefined) | 28% | -7

In a second layout: entries from further up.
The line under a structure holds: V. cholerae motility | V. cholerae motility viability
Cc1csc(NC(=O)c2cccc(Cn3nc(C)c(Br)c3C)c2)n1
→ -5% | -2
Cc1ccc(C(=O)N/C(=N/c2nc3c(c(=O)[nH]2)CCCC3)Nc2cccc(C)c2)cc1
→ -6% | -2

(continued)
SMILES | V. cholerae motility | V. cholerae motility viability
O=C(OCc1ccc(S(=O)(=O)c2ccccc2)cc1)c1cc2ccccc2oc1=O | -12% | -5
Cc1cccc(C(=O)OCC(C)(C)N=C2NS(=O)(=O)c3ccccc32)c1 | -1% | 0
COc1cccc(C=C2C(=O)NC(=O)NC2=O)c1OCc1ccc(Cl)cc1Cl | 16% | 27
COc1ccc(C(=O)n2cncn2)cc1 | -1% | -5
Cc1ccc(SCCC(=O)Nc2cccnc2)cc1 | 14% | 6
O=C1NC(c2ccccc2)=C([N+](=O)[O-])C(c2cccc(Cl)c2)N1 (centres undefined) | -8% | -6
Cc1ccc(/C=C/c2nc(-c3ccccc3O)n[nH]2)o1 | 59% | 20
Cc1ccc(SCCNC(=O)c2ccc(=O)[nH]c2)cc1 | 9% | 25
COc1ccc(NC(=O)Nc2ccc3c4c(cccc24)CC3)cc1OC | -4% | 4
O=C(CCSc1ccc(Cl)cc1)Nc1ccc2c(c1)OCCO2 | 21% | -2
COc1cc2c(cc1OC)CN(C(=S)NS(=O)(=O)c1ccc(C)cc1)CC2 | 5% | 21
c1ccc(-c2nnc(Sc3nc4ccccc4s3)c3ccccc23)cc1 | 0% | -6
CC(C)C(=O)Nc1ccc(C(=O)c2ccccc2)cc1NC(=O)C(C)C | 1% | 0
O=C(Nc1ccccc1OC(F)(F)C(F)F)c1ccc(Cl)cc1Cl | 6% | -5
Cc1ccc2nsnc2c1S(=O)(=O)N1CCN(Cc2ccc3c(c2)OCO3)CC1 | 16% | 2
COC(=O)CSc1nnc(-c2ccccn2)n1Cc1ccco1 | 19% | 30
Cc1ccc(-n2cnnn2)c(S(=O)(=O)N2CCOCC2)c1 | -4% | -6
O=c1cc(NCCCO)c2ccccc2o1 | 2% | -3
O=C(Cc1cccs1)NCc1cccnc1 | 3% | -5
COC(=O)C12C(=O)Oc3ccc([N+](=O)[O-])cc3C1C2(C)C(=O)c1ccccc1 (centres undefined) | 1% | 4
C=C1CS(=O)C2C(NC(=O)COc3ccccc3)C(=O)N2C1C(=O)OCc1ccc([N+](=O)[O-])cc1 (centres undefined) | -4% | 1
O=C(C#Cc1ccccc1)c1ccc([N+](=O)[O-])cc1 | 111% | 36
O=C1CC2OCC=C3CN4CCC56c7cc([N+](=O)[O-])ccc7N1C5C2C3CC46 (centres undefined) | 6% | 6
O=C(CSc1ccc2ccccc2n1)Nc1nc(-c2ccccc2)ns1 | -10% | -3
COC(=O)c1ccc(Oc2ccccc2)c(I)c1 | 25% | 2
Carrying on:
SMILES | V. cholerae motility | V. cholerae motility viability
O=C(O)Cn1nnnc1SCC(=O)Nc1ccc(F)cc1F | -1% | -5
O=C(Cc1ccc(Cl)cc1)Nc1ccc2[nH]c(=O)[nH]c2c1 | 8% | -4
O=C(CSc1cccc2cccnc12)Nc1nc(-c2ccccc2)cs1 | -26% | -7
COc1ccc(NC(=O)N2CC(C)OC(C)C2)cc1OC (centres undefined) | -1% | -3
COc1c(C)cc(C(C)(C)C)cc1C=O | -3% | 3
CC(=O)Nc1ccc(NC(=O)C2(C)CC2(Cl)Cl)cc1 (centres undefined) | 16% | 6

An excerpt. The share of hits here may be higher or lower than overall.
